# CBX7 inh – CBX7 inhibition, primary AlphaScreen; O95931; AlphaScreen His6-CBX7 / biotin-H3K27me3 peptide binding; stronger effect = lower value; normalised signal (fraction of DMSO) (no concentration beside the values); actives 1.1% (n = 66,000); AID 1224903; in the data active = normalised signal below about 0.5;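 also: 100 nL library stock added to about 20 µL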
# Target sequence (O95931 whole entry, looked up): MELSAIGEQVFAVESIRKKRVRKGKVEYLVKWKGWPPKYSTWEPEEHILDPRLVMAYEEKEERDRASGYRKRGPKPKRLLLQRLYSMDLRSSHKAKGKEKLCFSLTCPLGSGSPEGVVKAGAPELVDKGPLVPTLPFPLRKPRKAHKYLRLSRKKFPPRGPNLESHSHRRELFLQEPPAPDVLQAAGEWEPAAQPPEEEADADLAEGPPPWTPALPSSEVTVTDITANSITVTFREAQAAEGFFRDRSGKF
# CBX7 inh z-score – second read-out of CBX7 inh, no call of its own (marks repeat the call); z-score; measured here: z-score of CBX7 signal; some inactives read as strong as hits; reference of the scale not given here;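 same signal on another scale; lower means less binding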
# The depositor's hits bear a star; & = joins results of further samples. These rows are one share of the data; rates above refer to the full screens.
SMILES	CBX7 inh	CBX7 inh z-score
CC(C)CCNC(=O)c1cc(-c2ccccc2)nc2ccccc12	1.09	0.18
COc1ccc(CNC(=O)c2cc(-c3ccc4c(c3)OCO4)on2)cc1	1.01	0.208
Cc1ccc(NC(=O)C(Cc2ccccc2)NS(=O)(=O)c2ccc3c(c2)CCC(=O)N3)cc1Cl (configuration not stated)	1.1	1.88
CCOC(=O)c1c(NC(=O)CCCOc2ccc(C)cc2)sc2c1CCCC2	1.17	1.64
O=C(C1CCC1)N1CCc2cc(S(=O)(=O)N3CCCCC3)ccc21	1.03	1.08
Cc1cccc(N2CCN(C(=O)CC(C(=O)N3CCc4ccccc43)n3ccnc3)CC2C)c1 (configuration not stated)	0.512	-12.2
COC(=O)c1ccc(NC(=O)c2c(NCc3cccc(OC)c3OC)sc3c2CCCC3)cc1	0.832	-8.72
O=C(c1cc(-c2ccncc2)nc2ccccc12)N1CCCCC1	1.03	1.67
CCC(C(=O)Nc1nnc(COc2cc(C)ccc2C)s1)c1ccccc1 (configuration not stated)	1.07	0.307
COc1cccc(-c2cc(C(F)(F)F)nc(-n3nc(C)c(Cl)c3C)n2)c1	1.18	4.48
COCc1cc(C)nc(Nc2ccccc2OC)c1C#N	1.09	0.765
COc1ccc(C2C(=O)N(C3CCCCC3)CC(=O)N2CCc2ccc(OC)c(OC)c2)cc1 (configuration not stated)	0.844	-0.63
CC1CCCC(C)N1c1nnc(NC(=O)Nc2ccc(Cl)cc2)s1 (configuration not stated)	1	0.00943
COc1ccc(-n2nc(C(=O)Nc3ccc(C)cc3Br)c3ccccc3c2=O)c(OC)c1	1.05	0.581
CCC(Sc1nc(Nc2ccc(F)cc2)c2ccccc2n1)C(=O)NCc1cccnc1 (configuration not stated)	1.04	0.107
COc1ccc(Cn2c(=O)[nH]c3cc(C(=O)NCCCN4CCCC4=O)ccc3c2=O)cc1	1.07	1.76
COc1ccccc1Nc1ncc(C(=O)N2CCCC2)c2ccccc12	1.13	5.73
Cc1cc(C)c2nc(N3CCC(C(=O)NCCCN4CC(C)CC(C)C4)CC3)sc2c1 (configuration not stated)	1.06	1.08
Cc1cc(N2CC(C)CC(C)C2)nc2ccc(NC(=O)CCC(=O)NCC3CCCO3)cc12 (configuration not stated)	1.01	0.506
CCOC(=O)c1[nH]cnc1C(=O)Nc1ccccc1C	1.08	1.58
CC(=O)NC(CCS(C)(=O)=O)C(=O)Nc1c(F)cccc1F (configuration not stated)	1.01	0.541
COC(=O)CCCC(=O)Nc1c2c(nc3c1CCC3)CCCC2	1.05	0.692
Cc1onc(-c2ccccc2)c1C(=O)Nc1ccc(S(=O)(=O)Nc2ncccn2)cc1	0.988	-0.427
Cc1ccc(-n2c(Cc3cccn3C)nnc2SCC(=O)Nc2ccc(F)cc2F)cc1	0.836	-3.92
Cc1ccc(C)c(CN2C(=O)c3ccccc3S(=O)c3ccc(C(=O)N4CCOCC4)cc32)c1 (configuration not stated)	0.94	-0.966
CC(=O)Nc1ccc(-n2c(C)ccc2C)c(C(=O)O)c1	0.953	-1.39
O=C(NCc1ccccn1)c1ccc2nc(N3CCOCC3)sc2c1	1.14	1.28
Cc1ccc(C)c(NC(=O)CN(C)S(=O)(=O)c2ccc3c(c2)CCC(=O)N3)c1	0.999	-0.0338
CCOc1ccc(CN2C(=O)c3ccccc3C2C(=O)NCc2cccnc2)cc1 (configuration not stated)	0.954	-1.71
CC(CCc1ccccc1)NC(=O)Cn1nc(Cc2ccncc2)c2ccccc2c1=O (configuration not stated)	1.12	1.19

# As entered above:
# CC(=O)NC(CCS(C)(=O)=O)C(=O)Nc1c(F)cccc1F (configuration not stated) | CBX7 inh: 1.01
# Cc1onc(-c2ccccc2)c1C(=O)Nc1ccc(S(=O)(=O)Nc2ncccn2)cc1 | CBX7 inh: 0.988
# COc1ccccc1Nc1ncc(C(=O)N2CCCC2)c2ccccc12 | CBX7 inh: 1.13

# Additional results follow.
SMILES	CBX7 inh	CBX7 inh z-score
CCC(CO)NS(=O)(=O)c1cc(-c2nn(C)c(=O)c3ccccc23)ccc1C (configuration not stated)	0.939	-0.7
Cc1ccc2c(c1)c1c(n2CC(O)CNc2ccccc2)C(=O)CCC1 (configuration not stated)	0.956	-1.69
O=C(NC1CCCCCC1)c1cc2c(s1)CS(=O)(=O)C2	0.973	-0.507
CC1=Nc2ccc(Br)cc2C(c2ccccc2)N1CC(=O)O (configuration not stated)	0.949	-0.555
Cc1cc(C(=O)N2CCN(c3cccc(C(F)(F)F)c3)CC2)n(-c2ccccc2)n1	1.03	0.909
C=C(C)c1cccc(C(C)(C)NC(=O)NCc2ccncc2)c1	1.06	0.809
CC(=O)NC(Cc1ccccc1)c1nc2ccccc2n1Cc1ccccc1C (configuration not stated)	0.953	-0.888
COc1cc2c(C(=O)Nc3ccccn3)cn(CC(C)C)c(=O)c2cc1OC	0.959	-1.06
CC1CC(C)CN(S(=O)(=O)c2ccc3c(c2)CCN3C(=O)C2CC2)C1 (configuration not stated)	1.02	0.474
O=C(c1ccccc1)N1CCN(CC#CC2(O)CCCCC2)CC1	0.98	-0.0889
COc1ccc(-c2cc(C(F)(F)F)n3nc(C(=O)NC4CCCCC4)c(Cl)c3n2)cc1OC	1.08	2.29
COc1ccccc1-c1cc2nc(C)c(CCC(=O)Nc3ccc(C)cc3Cl)c(C)n2n1	0.93	-1.74
Cc1ccc(-c2nnc(Nc3ccc(F)cc3)c3ccccc23)cc1S(=O)(=O)N1CCOCC1	0.865	-1.52
NC(=O)N1CCn2c3c(c4cc(C5CCCCC5)ccc42)CCCC31 (configuration not stated)	0.759	-9.92
Cc1ccc(-c2csc(Nc3ccccc3C)n2)cc1	1.04	0.947

# Some of these compounds in order of number of heavy atoms, low to high.
SMILES	CBX7 inh	CBX7 inh z-score
Cc1ccc(-c2csc(Nc3ccccc3C)n2)cc1	1.04	0.947
CC1=Nc2ccc(Br)cc2C(c2ccccc2)N1CC(=O)O (configuration not stated)	0.949	-0.555
C=C(C)c1cccc(C(C)(C)NC(=O)NCc2ccncc2)c1	1.06	0.809
O=C(c1ccccc1)N1CCN(CC#CC2(O)CCCCC2)CC1	0.98	-0.0889
CC1CC(C)CN(S(=O)(=O)c2ccc3c(c2)CCN3C(=O)C2CC2)C1 (configuration not stated)	1.02	0.474
CCC(CO)NS(=O)(=O)c1cc(-c2nn(C)c(=O)c3ccccc23)ccc1C (configuration not stated)	0.939	-0.7

# (more compounds)
SMILES	CBX7 inh	CBX7 inh z-score
FC(F)(F)c1cc(-c2ccccc2)n(-c2cc(N3CCCCC3)ncn2)n1	1.42	2.66
CCN1CCN(CCNC(=O)CS(=O)(=O)Cc2nc(-c3ccc(C)cc3)oc2C)CC1	0.991	-0.0194
Cc1c(C(=O)NC2CCCC2)oc2ccc(S(=O)(=O)N3CCOCC3)cc12	1.04	0.387
COc1ccc(NC(=O)c2c(NCc3sccc3C)sc3c2CCCCC3)c(OC)c1	0.52	-6.72
Cc1ccccc1OCc1nc(C#N)c(N2CCOCC2)o1	0.856	-0.898
O=C1C2C3C=CC(C3=C3CCCC3)C2C(=O)N1c1ccc(Cl)c(Cl)c1 (configuration not stated)	0.934	-0.259
CC1CCN(S(=O)(=O)c2ccc3c(c2)N(CC(=O)N2CCCCCC2)C(=O)CO3)CC1	1.04	1.28
Cc1oc(-c2ccc(Cl)cc2)nc1CN1CCCC(C(=O)NC2CCCCCCC2)C1 (configuration not stated)	1.01	0.223
O=S(=O)(c1ccc(Cl)cc1)c1nc(-c2ccccc2)oc1N1CCOCC1	1.01	0.046
Cc1cccc(C2(c3cccc(C)c3)CC2C(=O)Nc2cccc(Cl)c2)c1 (configuration not stated)	1.01	0.19
O=C(NC1CCCC1)C1c2cccn2CC(=O)N1CCc1ccc(Cl)cc1 (configuration not stated)	1.04	0.743
Cc1cc(C)cc(NC(=O)CSc2nccn2-c2cc(C)cc(C)c2)c1	0.912	-1.34
CCCCOc1ccc(C(C)NC(=O)CSCc2nc(-c3ccc(CC)cc3)oc2C)cc1 (configuration not stated)	0.883	-1.89
CCOc1ccc(CCNC(=O)Cc2cn(C)c3ccccc23)cc1OCC	0.952	-1.67
Cc1c(C(=O)Nc2cccc(Cl)c2)sc2ncn(CC(=O)N3CC(C)CC(C)C3)c(=O)c12 (configuration not stated)	1.02	0.687
CCCCN(C)C(=O)c1ccc2c(c1)N(Cc1ccccc1)C(=O)c1ccccc1S2=O (configuration not stated)	1.05	1.17
O=C(NCC1CCCO1)C1CCCN(c2nc3ccccc3[nH]2)C1 (configuration not stated)	1.13	1.46
Cc1cc(NC2=NS(=O)(=O)c3ccccc32)ccc1Br	0.947	-1.39
COc1ccc(-n2c(Cc3cc(=O)[nH]c(=O)[nH]3)nnc2SCc2cccnc2)cc1	1.01	0.372
CCOc1ccc(-c2cc(C(=O)NC3CCCC3)c3ccccc3n2)cc1	1	0.017
COC(=O)c1c(NC(=O)c2ccc(F)cc2)sc(C)c1C	1.34	4.71
O=C(O)CCC(=O)N1CCN(c2nc(-c3ccccc3)c3ccccc3n2)CC1	1.05	0.527
CCCc1nc2ccccc2n1CC(O)COc1cc(C)ccc1Cl (configuration not stated)	0.979	-0.518
Cc1ccn2c(Nc3ccc(C(C)C)cc3)c(-c3cccnc3)nc2c1	0.821	-8.64
COc1ccc(-n2nc(C(=O)N(C)c3ccc(Cl)cc3)c3ccccc3c2=O)c(OC)c1	0.717	-1.77
CC(=O)N1CCc2cc(S(=O)(=O)NC(CC(C)C)C(=O)NCCc3ccc(Cl)cc3)ccc21 (configuration not stated)	1.14	2.24
COc1ccccc1-c1c(C)nn2c(N(C)C3CCCCC3)cc(C)nc12	1.03	0.469
N#Cc1ccccc1NC(=O)Cn1nc(Cc2ccncc2)c2ccccc2c1=O	1.09	0.961
CCCCCn1c(=N)n(CC(O)COc2cccc(C)c2)c2ccccc21 (configuration not stated)	0.871	-2.93
CCOC(=O)c1sc(NC(=O)Nc2ccc(Cl)c(Cl)c2)nc1C	1	0.088
Cc1ccc(-c2nc(S(=O)(=O)c3ccc(C)cc3)c(SCC(=O)NCC3CCCO3)o2)cc1 (configuration not stated)	0.998	-0.0207
Cc1ccc(-c2nnc(Nc3ccc(OCC(N)=O)cc3)c3ccccc23)cc1S(=O)(=O)N(C)C	0.979	-0.0517
COc1ccc(Br)cc1CN1C(=O)CCC1(C)C(=O)NC1CCCC(C)C1C (configuration not stated)	0.978	-0.654
Cc1c(C(=O)NCCCN2CCCCCC2)sc2ncn(CC(=O)N3CCCCC3C)c(=O)c12 (configuration not stated)	1.01	0.288
CCOC(=O)c1cnc2ccc(F)cc2c1NCCc1ccccc1	1.26	8.83
CCCNc1c(N2CCC(C(=O)OCC)CC2)c(=O)c1=O	0.977	-0.643
O=C1NCCCc2nc(Oc3ccccc3)sc21	1.15	0.69
COc1ccc(-c2[nH]c(-c3ccc(F)cc3)nc2SCC(=O)Nc2ccccc2)cc1	1.06	1.5
Cc1ccc(-c2noc(CCC(=O)NC(C)C)n2)cc1	1.02	0.48
COC(=O)c1nnn(-c2nonc2N)c1CSc1nnc(N)s1	1	-0.00188
Cc1cccc(OCC(=O)Nc2cc(-c3nc4cc(C)cc(C)c4o3)ccc2C)c1	1.04	1.4
Cc1cc(C)cc(-n2c(CCC(=O)O)ccc2-c2cccs2)c1	1.01	0.263
COc1cccc(NC(=O)CCCOc2cc(=O)n(C)c3ccccc23)c1	0.881	-1.81
COc1ccc(CC(=O)NCCc2cc3cc(C)c(C)cc3[nH]c2=O)cc1OC	0.875	-1.61
CCCNC(=O)Cn1cnc2sc(C(=O)N3CCCC3)c(C)c2c1=O	1.02	0.521
O=C(CSc1nn2c(SCC(=O)C3CC3)nnc2s1)C1CC1	1.04	1.55
CCOC(CNC(=O)Cn1nc(Cc2cccnc2)c2ccccc2c1=O)OCC	1.13	2
COc1ccccc1-c1cc(C(F)(F)F)nc(N2CCN(c3ccc(F)cc3)CC2)n1	1.23	10.9
CCCCN(CC)C(=O)Cn1ncc2c1-c1ccccc1OC2	1.03	0.435
CCCc1c(-c2ccccc2)nc2sc3c(c2c1N)CCCCC3	0.772	-3.01
Cc1cc(NC(=O)CN(C)S(=O)(=O)c2cnc[nH]2)ccc1Br	1.12	1.3
COc1ccccc1-c1cc(C(=O)NCCN2CCOCC2)c2ccccc2n1	0.989	-0.272
O=C(NCCN1CCOCC1)c1cnn2c(C(F)(F)F)cc(-c3ccc(Br)cc3)nc12	0.919	-1.92
CCOC(=O)c1cnc2ccccc2c1Nc1ccc(C(=O)O)cc1	1.04	1.08
CCC(C)NC(=O)c1nc(-c2cccc(C)c2)oc1C (configuration not stated)	1.03	0.403
Cc1nc2cc(-c3cccc(F)c3)nn2c(C)c1CCC(=O)NC1CCN(Cc2ccccc2)CC1	0.997	-0.111
CCOc1ccc(NC(=O)NCCCN2CCN(c3ccc(OC)cc3)CC2)cc1	0.948	-0.557
O=C1CCc2cc(S(=O)(=O)N(CCc3ccccc3)Cc3ccccc3)ccc2N1	0.922	-1.75
Cc1cccc(-c2nc(Nc3cccc(C(=O)O)c3)c3ccccc3n2)c1	0.951	-0.561
CCN(CC)CCNC(=O)c1ccccc1C(=O)c1ncc[nH]1	1.05&0.985	1.4&-0.412

# Record cards, from the list above. Order of screens: CBX7 inh, CBX7 inh z-score
# Profile of O=C1CCc2cc(S(=O)(=O)N(CCc3ccccc3)Cc3ccccc3)ccc2N1 → 0.922, -1.75
# Profile of Cc1cc(NC(=O)CN(C)S(=O)(=O)c2cnc[nH]2)ccc1Br → 1.12, 1.3
# Profile of CCC(C)NC(=O)c1nc(-c2cccc(C)c2)oc1C (configuration not stated) → 1.03, 0.403
# Profile of O=C(NCCN1CCOCC1)c1cnn2c(C(F)(F)F)cc(-c3ccc(Br)cc3)nc12 → 0.919, -1.92
# Profile of CCOc1ccc(NC(=O)NCCCN2CCN(c3ccc(OC)cc3)CC2)cc1 → 0.948, -0.557
